Screening results from PubChem BioAssay.
Rango-impB inh – inhibitors of Rango-importin beta complex formation; Q14974; Rango CFP/YFP FRET sensor + importin beta, 45 min; Potency, µM (doses to about 92.2 µM), for the others: top-dose inhibition of complex formation; 340,000 tested, 0.031% active; active = rising FRET ratio curve, often small or poorly fitted; inconclusive = mostly compound fluorescence or quenching in the first reads; inactive = flat curves in all reads;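 further: potency means the concentration at half of the fitted maximal effect; 0% = DMSO wells and 100% = buffer wells lacking importin beta; nearly all actives have a fitted effect of over 15% in size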
Target sequence (Q14974 whole entry, looked up): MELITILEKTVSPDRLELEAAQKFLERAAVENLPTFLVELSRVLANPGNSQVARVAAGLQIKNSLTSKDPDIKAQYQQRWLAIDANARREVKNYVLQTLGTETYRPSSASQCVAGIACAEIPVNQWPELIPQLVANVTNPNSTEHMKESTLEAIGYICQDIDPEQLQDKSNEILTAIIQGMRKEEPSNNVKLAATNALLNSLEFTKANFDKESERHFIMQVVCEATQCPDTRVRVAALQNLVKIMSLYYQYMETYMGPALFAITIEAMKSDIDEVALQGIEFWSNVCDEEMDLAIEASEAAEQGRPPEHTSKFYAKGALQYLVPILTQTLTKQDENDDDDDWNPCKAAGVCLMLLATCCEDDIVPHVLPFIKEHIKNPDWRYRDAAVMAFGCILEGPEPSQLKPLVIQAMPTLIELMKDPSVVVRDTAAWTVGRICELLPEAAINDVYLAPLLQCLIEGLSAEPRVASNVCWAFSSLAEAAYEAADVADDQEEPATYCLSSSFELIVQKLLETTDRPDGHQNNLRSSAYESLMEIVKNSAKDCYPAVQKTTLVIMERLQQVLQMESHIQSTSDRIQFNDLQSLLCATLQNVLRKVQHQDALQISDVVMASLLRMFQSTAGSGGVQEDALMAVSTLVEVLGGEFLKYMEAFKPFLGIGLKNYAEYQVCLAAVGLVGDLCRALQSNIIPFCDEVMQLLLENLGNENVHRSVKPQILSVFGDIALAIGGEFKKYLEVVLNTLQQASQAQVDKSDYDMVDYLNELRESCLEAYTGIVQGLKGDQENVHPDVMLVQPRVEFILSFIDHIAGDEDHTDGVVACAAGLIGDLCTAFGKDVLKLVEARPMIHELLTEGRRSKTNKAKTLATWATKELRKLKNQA
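Inhibition scored from the CFP 486 nm/YFP 530 nm FRET ratio 45 min after adding 0.125 microM importin beta to 50 nM Rango biosensor preincubated 5 min with compound (room temperature, PBS with DTT, Tween-20, BSA). No-importin wells as positive control.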
GLA inh pH 4.5 – alpha-galactosidase A (human) inhibition, pH 4.5; P06280; purified enzyme, 4-MU-alpha-Gal fluorescence, pH 4.5; activity change, negative = inhibition, % at 105 µM; 230,000 tested, under 10 active; AID 1467; inconclusive = small, poorly fitted or top-dose-only inhibition, or a rising curve; inactive = flat fitted curve, though single readings scatter; no compound was filed as active;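 further: 0% = full activity with enzyme and -100% = basal without enzyme; dose as in the result columns while the protocol names 77 µM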
Rango release inh – inhibitors of RanGTP-induced Rango-importin beta complex dissociation; Potency, µM (highest dose often 46.1 µM), for inactives: at the top dose activity change, negative = inhibition; Biochemical FRET Rango-importin beta, RanGTP-induced dissociation; 340,000 tested, 0.071% active; AID 540253; O95149+P62826; active means falling FRET ratio curve, often poorly fitted, with flat reads before Ran was added; inconclusive means other falling curves, or compound fluorescence or quenching; inactive means flat or rising ratio curve;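 further: potency means the concentration at half of the fitted maximal effect; % of control where 0% means no effect; nearly all actives have a fitted effect of over 45% in size; -100% = wells without RanGTP and RCC1; the record marks most hits as doubtful in a second field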
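Two FRET readings bracket the reaction: one 5 min after compound meets Rango–importin beta, another 45 min after RanGTP-RCC1 (0.6 uM Ran, 0.2 uM RCC1, 2 mM GTP) is added. Only the second defines inhibition.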
miR-21 reporter – miR-21 reporter, rising signal; Potency, µM (doses to about 38.3 µM), without a hit: top-dose reporter change, positive = more light; 340,000 tested, under 10 active; AID 2288; HeLa miR-21 FLuc reporter, luciferase, 48 h; active = well fitted rising curve with a large enough effect; inconclusive = small, poorly fitted or top-dose-only effect; inactive = no such curve, though single readings can be large or run the other way;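 further: % of control where 0% means no effect; miR-21 action dims this reporter so a rising signal means less miR-21 action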
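Using DMEM plus 10% FBS, HeLa miR-21-FLuc cells are incubated with test compounds (final up to about 40uM) for 48 hours; firefly luciferase signal is then imaged following reagent-mediated lysis.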
Active calls of the source: *; ? = inconclusive; . = no result given; & = joins results of further samples.

No.	mol	Rango-impB inh	GLA inh pH 4.5	Rango release inh	miR-21 reporter
1	O=C(NCCc1ccc2c(c1)OCCO2)c1ccccc1F	-0.4%	-4.7	-5.1%	-56.5%
2	CC(C)(C)C1=Nn2c(nnc2-c2n[nH]c3c2CCC3)SC1	0.8%	-1.1	5.8%	-15.5%
3	Clc1ccc(Nc2nc(C3CC3)cs2)cc1	-2.9%	-11.5	-2.4%	-49.0%
4	O=C1OCc2cc(NC(=O)C3CCCO3)ccc21 (centres undefined)	3.4%	6.9	25.0%	-6.7%
5	CC(C)OP(=O)(OC(C)C)C(O)c1ccc2c(c1)OCO2 (centres undefined)	4.3%	3.7	11.0%	-2.0%
6	COc1ccc(NC(=O)c2nc(C)c(C3(C)CC(c4ccccc4)=NO3)s2)cc1 (centres undefined)	-4.2%	2.3	-19.5%	17.9%
7	O=C(Nc1ccccc1)N(O)c1ccc(Cl)cc1	0.5%	9.3	-11.0%	-34.4%
8	CSc1ccccc1NC(=O)Nc1ccccc1Cl	-0.3%	-5.3	23.5%	-21.5%
9	COC(=O)c1ccc(C(=S)NCC2(N(C)C)CCCCC2)cc1	0.0%	.	12.9%	-8.9%
10	COc1cccc(NC(=O)c2cnn(-c3ccccc3)c2C)c1	4.1%	.	8.0%	-9.3%
11	Cc1c(C(=O)N2CCOCC2)oc2ccc(Br)cc12	0.6%	.	0.3%	.
12	CN1CC(c2ccccn2)C2(SC(=S)N(Cc3ccccc3)C2=O)C12C(=O)Nc1ccccc12 (centres undefined)	-4.3%	?	-2.3%	19.2%
13	Cc1ccc(CNc2nc(C)c(C(=O)N(C)C)s2)cc1	-6.3%	.	-6.8%	-26.3%
14	Cc1cc(C)c(C)c(S(=O)(=O)Nc2cccc(-n3cnnn3)c2)c1C	0.3%	.	-0.2%	0.6%
15	Cc1nn(C(C)C(=O)NC(C)CCc2ccccc2)c(=O)c2cc3occc3n12 (centres undefined)	0.3%	.	-1.3%	9.9%
16	O=C(NC1CCCCC1)c1cc(-c2cccc(Cl)c2)on1	0.5%	.	-0.2%	-40.1%

3 of the entries above in order of the Rango-impB inh value, low to high.
| # | mol | Rango-impB inh |
| --- | --- | --- |
| 15 | Cc1nn(C(C)C(=O)NC(C)CCc2ccccc2)c(=O)c2cc3occc3n12 (centres undefined) | 0.3% |
| 16 | O=C(NC1CCCCC1)c1cc(-c2cccc(Cl)c2)on1 | 0.5% |
| 10 | COc1cccc(NC(=O)c2cnn(-c3ccccc3)c2C)c1 | 4.1% |

(list continues)
No.	mol	Rango-impB inh	GLA inh pH 4.5	Rango release inh	miR-21 reporter
17	CC(C)(C)NC(=O)N1CCN(c2nc(-c3ccccc3)ns2)CC1	1.0%	-2.6	1.9%	-34.9%
18	Cc1cc(C)c2cc3c(N)c(C(=O)N4CCc5ccccc5C4)sc3nc2c1	?	-0.9	?	0.0%
19	CCOc1ccc(C(=O)N2CCCC2)cc1	5.0%	-1.0	3.2%	-8.7%
20	CCc1nc(SCC(=O)Nc2nc3c(s2)CCCC3)c2ccccc2n1	-1.0%	0.2	0.1%	-1.5%
21	CCOC(=O)N1CCN(C(=O)COC(=O)c2ccc([N+](=O)[O-])cc2Cl)CC1	-0.5%	.	-2.1%	.
22	CC(C)c1ccc(/C=C/C(=O)NC2=NCCS2)cc1	.	-7.6	.	-1.2%
23	CCn1c(SCc2ccccc2)nc2cc(S(N)(=O)=O)ccc21	-3.0%	.	2.9%	2.5%
24	CCOc1ccc(NC(=O)CCC(=O)c2ccc(-c3ccccc3)cc2)cc1	-2.3%	-2.1	1.5%	-6.2%
25	Cc1cc([N+](=O)[O-])c2[nH]c(C(=O)N/N=C/c3ccccc3C(=O)O)c(-c3ccccc3)c2c1	-0.3%	-17.7	-5.5%	-2.0%
26	CCOC(=O)c1sc(=NC(=O)c2ccc(F)cc2)n(C)c1C	0.8%	.	0.7%	-48.1%
27	COc1ccccc1NC(=O)COc1ccc(Br)cc1CNCCCN1CCOCC1	-4.7%	-3.3	3.3%	-21.0%
28	COc1ccc(-n2c(C)cc(C(=O)COC(=O)Cn3cnc4ccccc43)c2C)cc1	0.2%	-19.0	3.5%	0.0%
29	N#Cc1nc(-c2ccccc2)oc1NCc1ccco1	-1.6%	-12.8	28.1%	-38.9%
30	O=C(c1cccc(COc2cccc3ccccc23)c1)N1CCCC1	3.9%	0.3	19.9%	-13.4%
31	Oc1cccc(/C=N/Nc2cc(N3CCCC3)nc(N3CCCC3)n2)c1	-3.8%	-1.5	-0.8%	3.6%
32	Cc1ccccc1/C=N/NC(=O)c1ccc(-n2cnnn2)cc1	-2.8%	.	-14.2%	.
33	CC(C)(C)c1ccc(C(=O)CCCSC2=C(C#N)C(c3ccco3)C3=C(CCCC3=O)N2)cc1 (centres undefined)	0.4%	0.7	0.7%	-3.8%
34	O=C(CSc1nnc(-c2ccncc2)o1)Oc1ccccc1	-0.1%	5.1	-14.2%	-6.3%
35	CCc1cc(=O)oc2c(C)c(OCC(=O)N3CC[C@@]4(O)CCCC[C@H]4C3)ccc12	6.1%	.	2.5%	-2.5%
36	Cc1cc(NC(=O)Cc2csc(-c3ccccc3)n2)ccc1Br	1.6%	-4.8	5.8%	-4.4%
37	O=S(=O)(Nc1ccc(OC(F)(F)F)cc1)c1cccc2nonc12	1.8%	2.6	13.2%	-11.7%
38	CCOc1ccc(Oc2ccc(NC(=O)CSc3nncn3C)cc2)cc1	-1.2%	.	-7.3%	.
39	COc1ccc(C(=O)NCCCN2CCCC2=O)cc1	-1.3%	7.9	1.0%	-21.7%
40	CC(C)(C)N1CC2(c3ccccc3)CN(C(C)(C)C)CC(c3ccccc3)(C1)C2=O	-2.7%	-6.6	-7.0%	0.0%
41	O=C(NCCSc1c[nH]c2ccccc12)C1CC1	1.2%	11.6	13.6%	-6.3%
42	COc1ccccc1N1CCN(C(=O)c2cc3n(n2)C(C(F)(F)F)CC(c2ccco2)N3)CC1 (centres undefined)	0.2%	-4.6	-8.5%	3.0%
43	CC(=O)Nc1nc(SCc2ccc(Cl)cc2Cl)n[nH]1	-2.6%	4.1	-1.4%	-13.7%
44	CCOc1ccc(/C=C2\N=C(c3cccs3)OC2=O)cc1OC	.	4.5	.	-0.5%
45	C[C@@H]1[C@H]2CCCC[C@H]2CN(C(=O)OC(C)(C)C)[C@@H]1CC(=O)c1ccccc1	0.8%	.	3.3%	.
46	O=C(NCc1ccco1)/C(=C\c1ccc(F)cc1)NC(=O)c1ccco1	4.9%	.	-2.4%	0.4%
47	COc1ccc(S(=O)(=O)NC(C)C(=O)N2CCCCCC2)cc1 (centres undefined)	3.0%	.	-0.6%	0.2%
48	CN(C)c1ccc(-c2cc3ccccc3c(=O)o2)cc1	?	.	?	.
49	COc1ccccc1N(C)S(=O)(=O)c1ccc(C(=O)Nc2cccc(Br)c2)cc1	-0.7%	.	3.3%	.
50	O=C(Nc1ccccc1[N+](=O)[O-])c1cc2ccccc2nc1Cl	0.5%	-10.0	10.8%	-17.1%
51	CC(=O)Nc1cc(C(=O)N2CCCC2)ccc1S(=O)(=O)c1ccc(Cl)cc1	-2.6%	6.0	1.3%	-2.0%
52	Cc1cc(C(=O)O)cc(S(=O)(=O)N2CCOCC2)c1C	-2.6%	-2.2	10.2%	-6.3%
53	CCCCN1CN(S(=O)(=O)c2ccc(OC)cc2)c2nc3ccccc3nc21	?	.	-7.5%	-5.5%
54	NNC(=O)CN(CCc1ccccc1)S(=O)(=O)c1ccc(Cl)cc1	2.4%	-6.7	10.7%	4.3%
55	CCOc1ccc(-c2nnn(CC(=O)NCc3ccco3)n2)cc1	0.1%	-4.6	-2.9%	-6.7%
56	CCCOC1CCCN(C(=O)c2ccc3oc(C(C)C)nc3c2)C1 (centres undefined)	-5.1%	.	9.8%	-39.5%
57	Cc1ccc(NC(=O)Cn2nnc(C(=O)NCc3ccc(Cl)cc3)c2N)cc1F	6.0%	.	4.9%	-2.8%
58	CCc1nnc(NC(=O)CSc2nnc(COc3cccc(C)c3)o2)s1	-2.5%	8.5	7.9%	-6.1%
59	O=C(O)Cn1nc(-c2ccc(Cl)cc2)ccc1=O	-3.3%	.	-9.3%	-4.5%
60	O=S(=O)(c1ccc(Cl)cc1)c1nc(-c2ccccc2F)oc1NCCCN1CCOCC1	-1.8%	.	-1.1%	0.2%
61	CCSc1nc(N)c2c3c(sc2n1)CN(C)CC3	.	7.9	.	-13.7%
62	O=[N+]([O-])c1ncc(Br)cc1Nc1ccccc1	0.6%	.	12.9%	.
63	FC(F)(F)c1ccc(C2[C@H]3CN(Cc4cccnc4)[C@H](c4ccccc4)C34CC2(c2cccnc2)C4)cc1 (some centres undefined)	-1.1%	-6.0&-23.1	5.5%	?
64	COc1ccc(C(=O)Nc2cccc3ccccc23)cc1	-1.3%	.	3.8%	-34.6%
65	C=CCn1c(SCc2cc(=O)n3cc(C)ccc3n2)nnc1-c1cccc(C)c1	1.1%	-3.7	17.0%	-14.4%
66	O=C(COc1ccccc1)Nc1ccc(N2CCN(C(=O)c3ccco3)CC2)cc1	3.8%	5.5	10.6%	12.1%
67	CCc1c(C)sc(NC(=O)Cn2nc(C)c([N+](=O)[O-])c2C)c1C(N)=O	0.3%	-2.0	17.3%	3.1%
68	CN(CCO)c1cc(N2CCN(C(=O)c3ccco3)CC2)c2nonc2c1[N+](=O)[O-]	-6.1%	-1.3	1.8%	-2.4%
69	COc1ccc(OCc2cc(C(=O)N(C)Cc3nccn3C)no2)c2ccccc12	-4.2%	.	8.4%	-2.3%
70	CC(C)Cn1c(=O)c(C(=O)Nc2ccncc2)c(O)c2ccccc21	6.2%	.	3.2%	.
71	O=C(C1CCCN(S(=O)(=O)c2ccccc2)C1)N1CCCCC1 (centres undefined)	2.8%	.	-13.2%	-1.5%
72	Cc1ccc2nc3nc(NCC4CCCO4)c(C(=O)NC4CCCCC4)cc3c(=O)n2c1 (centres undefined)	.	-13.4	.	-2.0%

The results go on.
No.	mol	Rango-impB inh	GLA inh pH 4.5	Rango release inh	miR-21 reporter
73	CCCC(=O)NC(c1ccc(N(C)C)cc1)c1c(O)ccc2ccccc12 (centres undefined)	-1.4%	0.2	6.4%	-12.3%
74	CC(=O)OCc1nc2sc3c(c2c(=O)[nH]1)CCCC3	-3.2%	4.9	1.5%	-36.1%
75	CCOc1ccc2c(c1)c(C(C)=O)c(C)n2-c1ccccc1	1.8%	0.7	?	-2.3%
76	CC1(c2ccccc2)NC(=O)N(CC(=O)N(c2ccccc2)C2CCS(=O)(=O)C2)C1=O (centres undefined)	-0.2%	.	13.4%	.
77	CC(=O)Nc1ccc(NC(=O)C(C)OC(=O)C2CC(=O)N(CCc3ccccc3)C2)cc1 (centres undefined)	-1.4%	.	-7.4%	.
78	C[C@H](CO)N1C[C@H](C)[C@@H](CN(C)S(C)(=O)=O)Oc2c(NC(=O)c3ccncc3)cccc2C1=O	5.4%	.	-11.6%	.
79	CN(C)CCNc1ccc(-c2nn(C)c(=O)c3ccccc23)cc1[N+](=O)[O-]	0.2%	-27.7	-2.2%	18.0%
80	CC(=O)N1N=C(c2ccc(Br)cc2)CC1c1cn(C)c2ccccc12 (centres undefined)	?	-4.9	?	-10.1%
81	CC(=O)Nc1ccc(NC(=O)CS(=O)(=O)c2cn(CC(=O)N3CCC(C)CC3)c3ccccc23)cc1	0.4%	.	-0.8%	.
82	O=C(Nc1cccc(NC(=O)c2ccco2)c1)c1cccc(Br)c1	?	.	9.3%	0.0%
83	O=C(O)/C=C/C(=O)Nc1c(F)cccc1F	-4.7%	-1.3	-20.4%	-1.4%
84	N=c1n(CC(=O)O)c2ccccc2n1Cc1ccccc1Cl	-6.8%	1.8	1.3%	2.0%
85	C=CCN(c1ccccc1)S(=O)(=O)c1ccc2c(c1)oc(=O)n2C	1.8%	-1.0	-2.9%	-6.3%

Not all compounds are listed (hit frequency here may not be typical).
